Compound activity deposited in PubChem by ICCB-Longwood Screening Facility, Harvard Medical School.
Anaer choline gr: choline-fed anaerobic bacterial growth inhibition; Gram-negative bacterium anaerobic choline minimal medium, absorbance growth; stronger effect = lower value; many inactives read as strong as hits in the columns shown; calls only; 55,000 tested, 0.2% active;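 active means growth z-score on choline under -2 at 7 or 20 h with little or no fall on glycerol, limits in tiers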;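 further: stock transfer was 300 nL into about 50 µL; the organism is E. coli; final concentration not given here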
Anaer choline gr early: also measured in Anaer choline gr; calls as there; z-score; measured here: choline growth z-score, timepoint 1;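 score of optical density at 7 h as mean of two plates; lower means less growth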
* hit, by the source's call; i = inactive; & = joins results of further samples. These rows are one share of the data; the hit share may differ from the screen's.

molecule	Anaer choline gr early	Anaer choline gr
CC(C)CNC(=O)N1CCC(N2CCN(Cc3ccc(F)cc3)C(=O)C2=O)CC1	-0.91	i
O=C(O)[C@H]1/C(=C/CO)O[C@@H]2CC(=O)N21	-0.32	i
Cc1csc2ncc(C(=O)NCC(C)C)c(=O)n12	-0.96	i
CCCc1c(C)nc2ncnn2c1Sc1ccc(N)cc1	-1.31	i
CCSc1nnc2c(n1)OC(c1cccc(Cl)c1)Nc1ccccc1-2 (configuration not stated)	-0.65	i
CC1CCC(NC(=O)C2CCCN(C(=O)c3cc(-c4cccnc4)n[nH]3)C2)CC1 (configuration not stated)	0.13	i
Cc1ccc2c(c1)[C@H]1OCCC[C@H]1C(c1ccc(C(=O)O)cc1)N2 (some centres not stated)	-0.71	i
CCn1c(C)c(CN2CCC(C(=O)N3CCCC3)CC2)c2ccccc21	0.16	i
CCOC(=O)c1c(C)[nH]c(C(=O)N2CCCC(C(=O)NC3CC3)C2)c1C (configuration not stated)	0.49	i
COc1ccc(OC)c(CNC(=O)CSc2nnc(C(=O)Nc3cccc(Cl)c3)s2)c1	2.12	i
O=S(=O)(NC1CCCCC1)c1ccc(-c2nnc(C3CC3)o2)o1	-0.17	i
Cc1ccc(-c2nc3ccccc3n2CCNS(=O)(=O)c2ccc(C)c(C)c2)cc1	0.29	i
CCSc1nnc(-c2nn(C)c3c2CN(S(=O)(=O)c2cc(F)ccc2F)CC3)n1CC	-0.09	i
COc1ccc2c(c1)CCc1c(C(=O)N3CCCC3)noc1-2	0.95	i
N#Cc1c(O)c2c(-c3ccc(-c4ccccc4O)cc3)csc2[nH]c1=O	0.25	i
COc1ccc(-c2ccnc3[nH]n(-c4nc(C)cc(C)n4)c(=O)c23)cc1	0.6	i
Cc1c(-c2nnc(C(=O)NCCC(C)C)o2)oc2ccccc12	-0.1	i
Cc1ccccc1-c1nc2scc(CCNS(=O)(=O)CCc3ccccc3)n2n1	1.23	i
CCNc1cc(C)nc(Nc2ccc(NS(=O)(=O)c3ccc(F)cc3)cc2)n1	-2.05	i
CN(CCN1C(=O)c2cc3sccc3n2CC1(C)C(=O)NC1CCCCC1)C1CCCCC1 (configuration not stated)	-1.34	i
Cc1ccccc1S(=O)(=O)Nc1ccc(N2CCN(c3cccc(Cl)c3)CC2)c(C(=O)O)c1	-0.57	i
CCCN(CCC)S(=O)(=O)c1cc(-c2nnc(C)o2)co1	-0.13	i
O=C(CSc1nccn2nc(-c3ccccc3)cc12)NC1CCCCC1	-0.05	i
CCc1nnc(NC(=O)CSc2cc(C)[nH]c(=O)n2)s1	0.77	i
CCOc1ccccc1N1CCN(C(=O)C2CCCN(c3nccc4sc(C)cc34)C2)CC1 (configuration not stated)	1.22	i
Cc1cc(C(=O)NCCCN2CCCC2=O)c2cc(Br)ccc2n1	-0.22	i
CCC(Cc1ccccc1)NC(=O)Cn1cccc1C(=O)c1ccccc1 (configuration not stated)	-0.06	i
C=CCNC(=O)c1sc(COc2ccc(Cl)c(C)c2)nc1C	0.34	i
O=C(Nc1nc2c(s1)CN(S(=O)(=O)c1ccccc1)CC2)c1ccoc1	0.08	i
Cc1ccc(C)c(C(=O)CSc2nc3cc(C(=O)NC4CCCC4)ccc3c(=O)n2CC2CCCO2)c1 (configuration not stated)	1.01	i
COC(=O)c1c(NC(=O)c2cc(=O)c3cc(Cl)ccc3o2)sc2c1CCC2	0.96	i
O=S(=O)(c1ccc(Br)cc1)N1CCCC(c2nc(-c3ccc4c(c3)OCO4)no2)C1 (configuration not stated)	1.08	i
Cc1cc(NC(=O)C2CCCN(S(=O)(=O)c3cn(C(C)C)cn3)C2)c2ccccc2n1 (configuration not stated)	0.31	i
Cc1nc2c(c(C)nn2C(C)(C)C)c(C)c1CCC(=O)N1CCC(N2CCCCC2)CC1	-0.61	i
O=C(c1nnc(-c2csc(S(=O)(=O)NC3CC3)c2)o1)N1CCCCC1	-0.25	i
CCCN(CCC)CCNS(=O)(=O)c1ccc2c(c1)N(C(C)=O)CCCS2	-0.58	i
Cc1ccc(CN2c3ccccc3-c3nc(SCC(=O)Nc4ccc(F)c(F)c4)ncc3S2(=O)=O)cc1	0.36	i
COc1ccccc1C(=O)N1CCC(c2nc(-c3ccc(S(=O)(=O)N4CCCC4)cc3)no2)CC1	0.44	i
CC(C)c1cccc(O)c(=O)c1	-4.01	i
CCCCC(=O)O[C@H]1CC[C@H]2[C@@H]3CCc4cc(O)ccc4[C@H]3CC[C@]12C	0.65	i
CN(C)C(=O)c1cc2cccnc2n(Cc2ccccc2)c1=O	-0.88	i
Cc1cccc(C(=O)Nc2cnc3oc(-c4ccccc4OC(C)C)nn3c2=O)c1	0.42	i
O=C1C2N=NN(c3ccccc3)C2C(=O)N1c1ccccc1 (configuration not stated)	0.38	i
CC(C)(C)Nc1ncnc2c1cnn2-c1ccccc1	0.34	i
Cn1c(CN(c2ccc(F)cc2)S(C)(=O)=O)nnc1SCc1nc2ccccc2c(=O)[nH]1	-0.91	i
COc1cccc(-c2nnc3c4c5c(sc4ncn23)CCCC5)c1	-0.32	i
O=C(c1cc2c(s1)-c1ccccc1S(=O)(=O)C2)N1CCC(Cc2ccccc2)CC1	0.72	i
O=C(CCc1nc(-c2ccc(S(=O)(=O)N3CCCC3)cc2)no1)Nc1ccc(F)cc1	0.34	i
CN(C)C(=O)C1CCCN(Cc2cccn2C)C1 (configuration not stated)	0.69	i
O=C(C1CC1)N1CCC(c2nc(-c3ccc(Cl)cc3)no2)CC1	-0.01	i

Carrying on:
molecule	Anaer choline gr early	Anaer choline gr
CCOc1cc(C)nc(N2CCC(C(=O)O)CC2)n1	0.06	i
CC1CC(=O)c2cnc(N3c4ccccc4CC3C)nc2C1 (configuration not stated)	-0.07	i
COc1ccc(OCc2nnc3sc(-c4ccc(OC)c(OC)c4)nn23)cc1	0.76	i
COc1ccc(NC(=NCc2ccncc2)NC(=O)c2ccc(CN3CCOCC3)cc2)cc1OC	-1.55	i
CCCCC(=O)Nc1cnc(N2CCN(CCOc3ccc(Cl)cc3)CC2)c(C(=O)O)c1	-0.06	i
Cc1cccc(-c2nc(CN3C(=O)COc4ccccc43)no2)c1	0.85	i
Cc1ccc2cc(-c3noc(CCCC(=O)Nc4ccccc4)n3)c(=O)[nH]c2c1	1.2	i
CCCCCn1c(SCc2nc(-c3ccccc3)no2)nc2cc3c(cc2c1=O)OCO3	0.81	i
Cc1nc(-c2ccc(C)c(S(=O)(=O)N3CCC(C(=O)N4CCN(c5ccc(Cl)cc5)CC4)CC3)c2)no1	-0.08	i
CCc1ccc(NC(=O)CSC2=NN3CCCC(=O)N=C3S2)cc1	-1.09	i
CCOC(=O)c1c(NC(=O)C2=Cc3ccc(C)cc3OC=C2)sc2c1CCC(C)C2 (configuration not stated)	-0.42	i
O=C(CSc1nc(=O)n(Cc2ccncc2)c2c1CCC2)N1CCc2ccccc21	-0.97	i
CC(C)c1ccc(S(=O)(=O)c2cnc(N3CCC4(CC3)OCCO4)nc2N)cc1	-0.31	i
O=C(O)c1cc(-c2ccc(O)c(O)c2)nc2n[nH]c(-c3ccc(F)cc3)c12	0.6	i
CC(C)CCNC(=O)CCCCn1c(=O)c2ccccc2n(CC(=O)Nc2ccc(Cl)cc2F)c1=O	-0.21	i
O=C(Cn1cnc2onc(-c3ccc(Cl)cc3)c2c1=O)NC1CCCCC1	0.3	i
Cc1nn2c(=O)cc(CSc3ccccc3C(=O)O)nc2s1	0.32	i
COc1cccc(NC(=O)N2CCC(n3cnc4ccccc4c3=O)CC2)c1	0.63	i
CCNC(=O)N1CCCC(c2nc(C)cs2)C1 (configuration not stated)	0.36	i
COc1ccc(OC)c(-c2csc(Nc3ccc(C)cn3)n2)c1	0.97	i
CCN(CC)C(=O)CN1C(=O)CCCc2ccccc21	0.41	i
O=C(Nc1ccc(F)cc1F)c1cc2sc3ccccc3c2s1	1.83	i
O=C1c2ccccc2Sc2cc(-c3noc(-c4ccncc4)n3)ccc2N1C1CCCC1	0.4	i
CCC(=O)Nc1cnc(N2CCN(C(c3ccccc3)c3ccc(Cl)cc3)CC2)c(C(=O)O)c1 (configuration not stated)	-0.33	i
Cc1nc2nc[nH]n2c(=O)c1NS(=O)(=O)c1ccc(CC(C)C)cc1	0.95	i
Cc1ccc(-c2noc(-c3ccc(=O)n(CC(=O)Nc4ccc(C(C)C)cc4)c3)n2)cc1	-0.18	i
Cn1c(=O)c(-c2noc(C(=O)N3CCCC3)n2)nn(-c2ccccc2)c1=O	-0.31	i
COc1ccc(NC(=O)c2oc3ccccc3c2NC(=O)C2c3ccccc3Oc3ccccc32)cc1	-0.02	i
O=C(NCc1ccccc1Cl)c1ccc(-n2nc(OCc3ccc(Cl)cc3)ccc2=O)cc1	-0.31	i
O=C(Nc1ccccc1)N1CCSc2ncccc21	-0.36	i
O=C(Cc1ccccc1)NC(c1ccccc1)c1ccc2cccnc2c1O (configuration not stated)	1.96	i
CC(C)c1nnc(-c2coc(S(=O)(=O)N3CCN(C4CCCCC4)CC3)c2)o1	-0.86	i
CC(C)(CC(=O)N1CCN(c2ccccc2F)CC1)CC1=NS(=O)(=O)c2ccccc2N1	0	i
CCN(CC)C(=O)c1ccc(-c2nc3cc(NS(=O)(=O)c4cc(F)ccc4C)ccc3n2C)cc1	0.41	i
CCCN1C(=O)c2ccccc2CC1(C)C(=O)NC1CCCCC1 (configuration not stated)	0.92	i
CCC(C)Nc1oc(-c2ccc(S(=O)(=O)N3CCC(C)CC3)cc2)nc1C#N (configuration not stated)	0.85	i
O=C(CSc1nc(=O)[nH]c2c1CCCC2)Nc1nc2ccccc2s1	-0.13	i
CC1(C)CS(=O)(=O)N(c2cccc(C(=O)NCCc3c[nH]c4ccccc34)c2)C1=O	-0.35	i
CCCCN1C(=O)CCC1(C)C(=O)NCCC(C)C (configuration not stated)	-1.23	i
Cc1ccc(Nc2ncc(C(=O)Nc3ccc4c(c3)OCCO4)c3ccccc23)cc1Cl	-0.2	i
Clc1ccc(CSc2nnc3n2CCN3c2ccccc2)cc1	1.72	i
Cc1ccsc1C(=O)Nc1cc(-c2noc(C3CC3)n2)sc1C	0.57	i
O=C(CSc1nnc2ccc(C(=O)NCc3ccccc3)cn12)Nc1ccc2c(c1)OCO2	-0.06	i
Cc1cc(C)cc(-n2nnc(-c3nc(-c4ccccc4)no3)c2C)c1	0.77	i
O=C(NCCC1=CCCCC1)C1CCCN(C(=O)c2cc(-c3cccnc3)n[nH]2)C1 (configuration not stated)	-1.27	i
COc1ccc2c(c1)NC1(CCN(C(=O)Nc3ccc4c(c3)OCCO4)CC1)c1cccn1-2	-0.89	i
COCCCNC(=O)Cn1cc(S(=O)(=O)c2ccc(Cl)cc2)c(=O)c2cc(OC)ccc21	0.43	i
CCCN1CCN(Cc2nc3nc(C)cc(N4CCOCC4)n3n2)CC1	0.31	i
CC1CN(C(=O)c2ccc(Cl)cc2)c2ccccc2NC1=O (configuration not stated)	-1.11	i
CN(C)CCOc1ccc(/C(=C(/CCCl)c2ccccc2)c2ccccc2)cc1	0.06&-3.04&-0.07	i

The list continues:
molecule	Anaer choline gr early	Anaer choline gr
CNC(=O)N(C)Cc1ccoc1	-1.57	i
Cc1nn(-c2nc3ccccc3o2)c2c1C(c1cc(F)ccc1F)CC(=O)N2 (configuration not stated)	-0.72	i
NCCS	-0.18&0.56	i
COc1ccc(-n2nc3ccc(NC(=O)C4CCN(S(=O)(=O)c5ccc(Cl)cc5)CC4)cc3n2)cc1	-0.31	i
CCOc1ccc(CCNC(=O)COc2ncnc3oc(C)c(C)c23)cc1OCC	-1.25	i
Cc1ccc2nc(N3CCN(C(=O)c4ccc5c(c4)OCCO5)CC3)sc2c1	0.08	i
CC(Nc1nc2c(S(=O)(=O)c3ccccc3)nnn2c2ccccc12)c1ccccc1 (configuration not stated)	-0.03	i
Cn1cc(C(=O)Oc2cccnc2)c2ccccc2c1=O	-1.5	i
O=C(c1nc(C2CCCC2)nc2c1OCCO2)N1CCOCC1	-0.05	i
COC(=O)c1sc(NC(=O)CSc2nnc3cc(C)c4cccc(C)c4n23)c(C(=O)OC)c1C	1.2	i
CCn1c(=O)oc2cc(NS(=O)(=O)c3cnc[nH]3)ccc21	-0.29	i
COC(=O)CC1=CC(=S)Nc2cc(C)c(C)cc2N1	-0.6	i
Cc1cccc(S(=O)(=O)Nc2cccc(-c3cn4cccc(C)c4n3)c2)c1	1.12	i
COc1ccc(Br)cc1CN1CCCC1c1cc(C)no1 (configuration not stated)	0.04	i

A different layout for three compounds above:
COC(=O)CC1=CC(=S)Nc2cc(C)c(C)cc2N1
  Anaer choline gr early: -0.6 | Anaer choline gr: i
Cc1cccc(S(=O)(=O)Nc2cccc(-c3cn4cccc(C)c4n3)c2)c1
  Anaer choline gr early: 1.12 | Anaer choline gr: i
COc1ccc(Br)cc1CN1CCCC1c1cc(C)no1 (configuration not stated)
  Anaer choline gr early: 0.04 | Anaer choline gr: i

3 entries out of the list, sorted by molar mass, smallest number first.
molecule	Anaer choline gr early	Anaer choline gr
NCCS	-0.18&0.56	i
COC(=O)CC1=CC(=S)Nc2cc(C)c(C)cc2N1	-0.6	i
CCOc1ccc(CCNC(=O)COc2ncnc3oc(C)c(C)c23)cc1OCC	-1.25	i
